miR-21 FLuc: raises the signal of a miR-21 reporter; HeLa miR-21 FLuc reporter, luciferase, 48 h; Potency, µM (titrated, usually from 38.3 µM), for inactives: top-dose reporter change, positive = more light; 340,000 tested, under 10 active; AID 2288; active = well fitted rising curve with a large enough effect; inconclusive = small, poorly fitted or top-dose-only effect; inactive = no such curve, though single readings can be large or run the other way;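 further: % of control where 0% means no effect; miR-21 action dims this reporter so a rising signal means less miR-21 action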
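HeLa cells endogenously expressing miR-21, stably carrying CMV-driven firefly luciferase with a downstream miR-21 binding site, 2000 cells/well. Titrations up to approximately 40 uM, 48 hours; luciferase luminescence read.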
Rango-impB inh: Rango-importin beta binding inhibition. hit rate 0.031% among 340,000. Q14974. AID 540263. Rango CFP/YFP FRET sensor + importin beta, 45 min. Potency, µM (top dose mostly 92.2 µM), for inactives: at the top dose inhibition of complex formation; active = rising FRET ratio curve, often small or poorly fitted; inconclusive = mostly compound fluorescence or quenching in the first reads; inactive = flat curves in all reads;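 further: potency means the concentration at half of the fitted maximal effect; 0% = DMSO wells and 100% = buffer wells lacking importin beta; nearly all actives have a fitted effect of over 15% in size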
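FRET biosensor Rango (snurportin 1 IBB between N-terminal EYFP and C-terminal Cerulean), 50 nM in PBS/1 mM DTT/0.02% Tween-20/0.1% BSA, preincubated 5 min RT with compound; 0.125 microM importin beta added, 45 min RT, CFP/YFP FRET ratio read.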
GLA inh pH 4.5: alpha-galactosidase A (human) inhibition, pH 4.5 | purified enzyme, 4-MU-alpha-Gal fluorescence, pH 4.5 | activity change, negative = inhibition, % at 105 µM | 230,000 tested, under 10 active; inconclusive = small, poorly fitted or top-dose-only inhibition, or a rising curve; inactive = flat fitted curve, though single readings scatter; no compound was filed as active;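 further: 0% = full activity with enzyme and -100% = basal without enzyme; dose as in the result columns while the protocol names 77 µM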
Target sequence (P06280 whole entry, looked up): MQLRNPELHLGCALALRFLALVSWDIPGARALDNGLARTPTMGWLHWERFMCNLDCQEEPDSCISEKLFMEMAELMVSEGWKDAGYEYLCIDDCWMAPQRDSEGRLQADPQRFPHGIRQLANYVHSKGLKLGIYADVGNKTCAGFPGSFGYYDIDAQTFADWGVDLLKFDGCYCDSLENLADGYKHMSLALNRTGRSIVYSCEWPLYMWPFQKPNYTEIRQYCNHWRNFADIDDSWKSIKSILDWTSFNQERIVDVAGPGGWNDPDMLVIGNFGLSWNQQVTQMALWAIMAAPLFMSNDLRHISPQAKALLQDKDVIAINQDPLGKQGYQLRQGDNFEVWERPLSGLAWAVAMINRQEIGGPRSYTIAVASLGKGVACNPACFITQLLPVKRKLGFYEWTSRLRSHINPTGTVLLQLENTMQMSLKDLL
Rango dissoc inh: prevents RanGTP from dissociating the Rango-importin beta complex; O95149+P62826; hit rate 0.071% among 340,000; Potency, µM (series often up to 46.1 µM), without a hit: top-dose activity change, negative = inhibition; Biochemical FRET Rango-importin beta, RanGTP-induced dissociation; active means falling FRET ratio curve, often poorly fitted, with flat reads before Ran was added; inconclusive means other falling curves, or compound fluorescence or quenching; inactive means flat or rising ratio curve;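 further: potency means the concentration at half of the fitted maximal effect; % of control where 0% means no effect; nearly all actives have a fitted effect of over 45% in size; -100% = wells without RanGTP and RCC1; the record marks most hits as doubtful in a second field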
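Quantitative HTS using a FRET biosensor: 0.1 uM Rango, 0.25 uM importin beta, 0.6 uM Ran, 2 mM GTP, 0.2 uM RCC1 final, PBS with DTT, Tween-20 and BSA. Post-read taken 45 min after Ran addition.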
Numbers without * were called inactive; ? = inconclusive; . = no result given.

mol	miR-21 FLuc	Rango-impB inh	GLA inh pH 4.5	Rango dissoc inh
CC(NC(=O)c1ccccc1Cl)c1nnc(SCC(=O)Nc2ccc(C(=O)O)cc2)n1C (stereo not given)	-8%	-1.7%	-1	-9%
Cc1[nH]c(-c2ccccn2)nc(=S)c1Cl	21%	0.1%	-1	1%
CC1=C(C(=O)OC(C)C)C(c2cncc(-c3ccc(F)cc3)c2)C(C#N)=C(N)O1 (stereo not given)	-4%	-0.2%	-14	-11%
COc1ccc(CCNS(=O)(=O)c2ccc(C(=O)NCc3ccco3)cc2)cc1OC	2%	1.0%	-1	-10%
O=C(Nc1ccc(-c2nc3cccnc3s2)cc1)C1CCCO1 (stereo not given)	24%	-1.6%	13	1%
CCCCC(=O)NC(=S)NNC(=O)CCc1ccccc1	-1%	3.6%	-2	9%
C=C1c2nc3ccccc3n2C=C(c2ccc(C)cc2)N1c1ccccc1	.	?	.	?
COc1ccccc1N1CCN(c2nc(-c3ccccc3)cc(C(F)(F)F)n2)CC1	1%	-2.9%	-4	-15%
CCS(=O)(=O)N1CCC(NC(=O)C(Cc2ccc(OC)c(OC)c2)NC(C)=O)CC1 (stereo not given)	-2%	0.1%	.	6%
CCCNS(=O)(=O)c1ccc(CCC(=O)N2CCN(CC)CC2)cc1	-4%	-4.7%	5	3%
CCOc1ccccc1NC(=O)C1COc2ccccc2O1 (stereo not given)	-17%	-2.3%	.	22%
COc1ccccc1NS(=O)(=O)c1ccc(O)c(C(=O)OCc2cccc([N+](=O)[O-])c2)c1	0%	-0.3%	-6	6%
CN1C[C@@H]2[C@@H]3C(=O)N(Cc4ccccc4)C(=O)[C@@H]3[C@](C)(C1=O)N2C(=O)c1ccc(C(F)(F)F)cc1	.	-4.5%	.	?
COc1ccccc1NC(=O)CN1C(=O)C(C)Oc2ccccc21 (stereo not given)	-6%	0.2%	-20	0%
Clc1ccc(-c2csc(N/N=C/c3ccco3)n2)cc1	-47%	-1.1%	0	-9%
Cc1ccc(S(=O)(=O)NCC(=O)N(CC2CCCO2)C(C(=O)NC2CCCC2)C(C)C)cc1 (stereo not given)	1%	0.1%	.	3%
COc1ccc(-c2cn3cccnc3n2)cc1NC(=O)C1CC1	-3%	0.4%	2	-4%
COc1ccc(C(c2nnnn2C(C)C)N2CCN(C(=O)c3ccco3)CC2)cc1 (stereo not given)	2%	0.6%	.	-5%
O=C(CCCCCn1nnc2ccccc2c1=O)Nc1ccccc1F	-7%	3.6%	.	-11%
COc1ccc(-c2cc(C(F)(F)F)n3ncc(C(=O)NCC4CCCO4)c3n2)cc1OC (stereo not given)	-5%	?	3	?
CCOC(=O)CSc1ncc(-c2ccccc2)nn1	-1%	0.9%	4	-8%
CCOc1ccc2[nH]c(=O)c(CN(CCN3CCCC3)C(=S)Nc3ccccc3OCC)cc2c1	3%	5.2%	-17	-11%
CCOc1c(Cl)cnn(-c2ccc(C)cc2)c1=O	-32%	1.5%	12	-13%
CCOC(=O)N1CCN(C(=O)C(=O)Nc2sc3c(c2C(=O)O)CC(C)(C)OC3)CC1	0%	-0.1%	.	31%
Cc1nn(CC(N)=O)c(=O)c2ccccc12	6%	8.9%	4	-14%

Complete entries, quoted from the list.
`CC(NC(=O)c1ccccc1Cl)c1nnc(SCC(=O)Nc2ccc(C(=O)O)cc2)n1C` (stereo not given) as listed: miR-21 FLuc: -8%; Rango-impB inh: -1.7%; GLA inh pH 4.5: -1; Rango dissoc inh: -9%
`COc1ccc(CCNS(=O)(=O)c2ccc(C(=O)NCc3ccco3)cc2)cc1OC` as listed: miR-21 FLuc: 2%; Rango-impB inh: 1.0%; GLA inh pH 4.5: -1; Rango dissoc inh: -10%

The list continues:
mol	miR-21 FLuc	Rango-impB inh	GLA inh pH 4.5	Rango dissoc inh
Cc1nn(C(C)C(=O)NCC2CCCO2)c(=O)c2c1sc1ccccc12 (stereo not given)	0%	-0.4%	.	15%
CN(C)S(=O)(=O)c1ccc(C(=O)NCc2nnc(SCC(=O)c3ccccc3)o2)cc1	4%	-2.2%	.	0%
O=C(/C=C/c1ccccc1)OCC(=O)c1ccc[nH]1	.	5.3%	.	-23%
O=C(COC(=O)c1cc[n+]([O-])cc1)NCCc1ccc(Cl)cc1Cl	0%	-3.3%	7	0%
O=C(CN1CCN(S(=O)(=O)c2cccc(Br)c2)CC1)NCCc1cccs1	.	1.0%	.	5%
Cc1nc(Cl)sc1C(=O)Nc1cc(F)cc(F)c1	16%	3.7%	.	8%
CN(C)S(=O)(=O)c1ccc(C(=O)OCC2COC(C)(C)O2)cc1 (stereo not given)	1%	-0.1%	.	12%
COC(=O)N=Nc1c(O)[nH]c2ccc(Br)cc12	-7%	0.1%	-9	2%
Cc1cc(C)nc(SCc2ccc(C(=O)NNC(=O)Nc3cccc(Cl)c3)cc2)n1	20%	-1.2%	-3	-5%
CCC12CCC3c4ccc(O)cc4CCC3C1CC(O)C2O (stereo not given)	.	-0.7%	.	-10%
O=C(COC(=O)CNC(=O)c1ccc(Cl)cc1Cl)NCc1ccco1	.	1.1%	.	21%
COc1ccc(-c2nc(CS(=O)(=O)CC(=O)NCCc3cc(OC)ccc3OC)c(C)o2)cc1	0%	0.0%	1	-16%
COc1ccc(C(=O)Oc2cc(C)[nH]c(=O)c2[N+](=O)[O-])cc1	-1%	2.2%	0	-19%
N#CC(C#N)=C1C=CC=CN1/C(=C\c1ccco1)C(=O)c1ccccc1	?	-1.2%	-18	-14%
COc1cccc(NC(=O)Cn2c3ccc(F)cc3c3nc4n(c(=O)c32)CCS4)c1	-5%	0.5%	.	-9%
COc1ccc2c(c1)CC/C2=N\OC(=O)c1ccccc1C	-26%	2.1%	-3	5%
O=C1Nc2ccccc2N(O)N1c1ccc(Cl)cc1	0%	0.3%	3	2%
CS(=O)(=O)c1ccc2nc(NC(=O)Oc3ccccc3)sc2c1	-11%	-1.7%	5	-11%
CCOC(=O)C1=C(C)NC(=O)NC1C(C)C (stereo not given)	.	2.6%	.	-10%
c1ccc2c(-c3nc(C4CCCCC4)no3)cc(-c3ccncc3)nc2c1	-9%	?	1	8%
CCOc1ccc(S(=O)(=O)N2CCOCC2)cc1NC(=O)C1CCC1	-3%	-1.7%	.	-2%
Cc1nc(N(C)C)c2sc(=S)n(C)c2n1	-7%	-3.7%	-2	?
Cc1noc(C)c1CSCC(=O)Nc1ccc(S(C)(=O)=O)cc1	.	0.5%	.	20%
N#Cc1cccc(CN2C=NS(=O)(=O)c3ccccc32)c1	-1%	-1.0%	.	12%
COc1cc(CN2CCCC(CO)(Cc3ccccc3C)C2)cc2c1OCO2 (stereo not given)	-3%	-2.4%	-4	1%

Quoted from the listing:
`CN(C)S(=O)(=O)c1ccc(C(=O)OCC2COC(C)(C)O2)cc1` (stereo not given) in miR-21 FLuc = 1%
`c1ccc2c(-c3nc(C4CCCCC4)no3)cc(-c3ccncc3)nc2c1` in Rango dissoc inh = 8%
`CCS(=O)(=O)N1CCC(NC(=O)C(Cc2ccc(OC)c(OC)c2)NC(C)=O)CC1` (stereo not given) in Rango dissoc inh = 6%
`COc1ccc(-c2cn3cccnc3n2)cc1NC(=O)C1CC1` in GLA inh pH 4.5 = 2
`O=C1Nc2ccccc2N(O)N1c1ccc(Cl)cc1` in GLA inh pH 4.5 = 3
`CCOC(=O)CSc1ncc(-c2ccccc2)nn1` in GLA inh pH 4.5 = 4
`COc1ccc(-c2cc(C(F)(F)F)n3ncc(C(=O)NCC4CCCO4)c3n2)cc1OC` (stereo not given) in GLA inh pH 4.5 = 3

Next section.
mol	miR-21 FLuc	Rango-impB inh	GLA inh pH 4.5	Rango dissoc inh
Cc1ccc(OCCC(=O)N(Cc2ccccc2)c2c(N)n(Cc3ccccc3)c(=O)[nH]c2=O)cc1	.	5.2%	.	1%
Cn1cc(S(=O)(=O)N2CCCC2)cc1C(=O)N1CCN(c2ccccc2)CC1	3%	-0.7%	.	1%
COc1ccc(NC(=O)C2CCCN(S(C)(=O)=O)C2)cc1 (stereo not given)	0%	7.0%	.	-6%
C=CCn1c(SCC(=O)N2c3ccccc3Sc3ccccc32)nnc1-c1ccco1	0%	1.3%	-7	32%
COc1ccc(/C=N/NC(=O)c2cccc(C(F)(F)F)c2)cc1	7%	0.0%	3	-8%
CCC12CC3CC(C1)CC(C(=O)O)(C3)C2	-2%	4.8%	2	-2%
CCc1c(C)nc2[nH]nc(-c3ccccc3C)n2c1=O	-18%	1.8%	4	1%
COc1cc(C(=O)NCC(=O)Nc2c(C)cccc2C)ccc1OCC(=O)N1CCOCC1	.	0.8%	.	2%
CCOC(=O)c1c(C)[nH]c(C)c1C(=O)COC(=O)C1CCCN1S(=O)(=O)c1ccccc1F (stereo not given)	-4%	7.0%	4	4%
COc1ccc(CNc2nc3ccc(C)cc3s2)c(OC)c1OC	-3%	1.3%	.	-8%
O=C1CCCN1C(=O)CCC(=O)N1CCCC1=O	-1%	4.0%	.	5%
COc1ccc2oc(C(=O)NNC(=O)c3ccc(F)cc3)c(C)c2c1	.	0.0%	.	9%
Cc1cc(C)nc(SCCC(=O)Nc2ccccc2)n1	-12%	5.8%	-7	-1%
NNC(=O)c1ccccc1OCc1ccccc1	-15%	-0.1%	-10	-11%
CCc1ccc(N2C(=O)CC(NNc3nc4ccccc4s3)C2=O)cc1 (stereo not given)	-12%	-1.1%	7	-30%
COc1ccc2nc(C)cc(NCc3ccc(F)cc3)c2c1	27%	?	.	?
Cc1onc(-c2ccccc2Cl)c1C(=O)Nc1cccc(-c2nc3ncccn3c2C)c1	-5%	-3.1%	?	2%
CC(=O)c1cccc(NC(=O)CSc2nc(=O)n(CCN3CCOCC3)c3c2CCCC3)c1	.	-4.3%	.	-4%
NCCSc1c(-c2ccccc2)[nH]c2ccccc12	-4%	-1.9%	6	2%
Cc1ccc(C(=O)NNC(=O)c2ccc(NC(=O)C(C)(C)C)cc2)cc1	-11%	-1.1%	.	-10%
CCN(CC(=O)Nc1c(F)cccc1F)C(=O)CNC(=O)c1ccco1	.	-0.4%	.	17%
COCCn1c(SCC(=O)Nc2ccccc2)nc2c(oc3ccccc32)c1=O	3%	1.0%	0	3%
O=C1CS/C(=N\C(=O)N2c3ccccc3Sc3ccccc32)N1	2%	-0.5%	-7	0%
COc1ccc(C(=O)N=C2CCC(C#N)=C3c4cc(OC)c(OC)cc4CCN23)cc1	-17%	1.4%	5	-4%
NC(=NCCc1ccc(Cl)cc1)NS(=O)(=O)c1ccc(F)cc1	3%	-3.5%	-15	-22%
O=C(NCc1cccnc1)C(=O)Nc1ccc2c(c1)OCO2	-25%	4.0%	7	16%
CCCCCCCC(=O)N/N=C/c1ccc(Br)cc1	0%	-0.3%	-11	-13%
CC1CN(C(=S)NC(=O)c2ccc(Cl)cc2)CC(C)O1 (stereo not given)	-4%	3.8%	.	-1%
COc1cc(OC)c(NC(=O)CN(C)S(=O)(=O)c2ccc(-c3ccc(=O)[nH]n3)s2)cc1Cl	-11%	1.9%	.	28%
O=S(=O)(CCN1CCOCC1)c1ccccc1	-1%	-0.2%	.	7%
COC(=O)[C@]1(C)N[C@H](CN(C)C(=O)C2CCCCC2)[C@@H]2C(=O)N(Cc3ccccc3)C(=O)[C@@H]21	.	0.0%	.	?
CS(=O)(=O)c1ccc(Cl)c(NC(=O)C2CC(=O)N(c3ccc4c(c3)OCCO4)C2)c1 (stereo not given)	3%	-1.0%	.	9%
CC(C)c1ccc(NC(=O)Cn2nnc(C(=O)NCc3ccco3)c2N)cc1	-1%	-2.9%	.	7%
Cc1cc(C)c(C#N)c(Nc2ccccc2Cl)n1	0%	1.7%	-1	24%
Cc1c(NC(=O)CSc2nnnn2C)c(=O)n(-c2ccccc2)n1C	-6%	0.1%	4	-11%
O=C(c1ccccn1)N1CCCC(N2CCN(c3cccc(C(F)(F)F)c3)CC2)C1 (stereo not given)	-1%	-2.8%	.	-9%
N#C/C(=C\c1ccccc1O)C(=O)Nc1cccnc1	-55%	-6.4%	3	1%

Screening results: PubChem, National Center for Advancing Translational Sciences (NCATS)

The list is partial, so the mix of outcomes need not match the whole.
